PrP UTR inh: inhibition of PrP 5' UTR reporter expression. cell-based PrP 5' UTR mRNA reporter, plate reader. hit rate 0.35% among 340,000. inhibition, % (test concentration not listed);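 active = every replicate at 50% or more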;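 note: 0 = median of the neutral control wells; tested in H4 reporter cells; numbers are from one replicate; inactives centre near -14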
Autofluor counter: counter-screen for toxin protease inhibitors: compound fluorescence; compound autofluorescence counterscreen, microsphere flow cytometry; active compounds read high; fluorescence intensity (test concentration not listed); hit rate 3.1% among 360,000; AID 624483;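 active = at least 3 SD above the mean of all compounds, about 16000 in these data; inconclusive = too few beads counted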;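 note: 100 nL of 1 mM stock went into each well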
Sa ugtP lethal: compounds lethal to S. aureus RN4220 ugtP deletion mutant; growth inhibition, % (test concentration not listed); hit rate 0.54% among 330,000; OD600 growth, 16 h; some inactives read as strong as hits;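 active = z-score under -3 and OD600 up to 0.15 on both plates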;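 note: plate controls were untreated wells for no effect and antibiotic for full effect; wells of about 80 µL received 100 nL stock; the first replicate is given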
Mtb hypoxia inh: inhibitors of hypoxia-regulated fluorescent reporter in Mycobacterium tuberculosis | M. tuberculosis hypoxia-regulated fluorescent reporter, fluorescence | fluorescence inhibition, % (concentration not given with the values) | hit rate 0.1% among 300,000 | AID 1159583;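 active = 35 to 45% if threefold the growth effect, above 45% if 1.5-fold the growth effect; inactive = the rest, general growth blockers included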;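 note: wells of about 50 µL received 100 nL stock; 0% = vehicle wells and 100% = reference inhibitor wells; whole bacteria with a GFP reporter of the hypoxia response; strong numbers were not always called active; many hits fall short of the cut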
BJeLR lethal: BJeLR cell viability loss; BJeLR (HRASV12) viability, CellTiter-Glo ATP luminescence, 48 h; reference of the scale not given here; inhibition, % (no concentration beside the values); hit rate 0.17% among 300,000;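 active = replicate mean above 50%; inconclusive = above 50% but judged a plate artefact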;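 note: 50 nL library stock added to about 25 µL; numbers are from one replicate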
RN4220 kill: S. aureus RN4220 growth inhibition; OD600, 16 h; inhibition, % (no concentration beside the values); hit rate 0.33% among 330,000; AID 1259311;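 active = z-score of -3 or lower and OD600 up to 0.18 on both plates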;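 note: plate controls were untreated cells for no effect and reference antibiotic for full effect; stock transfer was 100 nL into about 80 µL; one replicate is shown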
Mtb hypoxia inh growth: also measured in Mtb hypoxia inh; calls as there; growth inhibition, %; measured here: M. tuberculosis growth (absorbance);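 0% = vehicle and 100% = reference antibiotic; read after six days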
Numbers without * were called inactive; ? = inconclusive; . = not tested or not shown.

SMILES	PrP UTR inh	Autofluor counter	Sa ugtP lethal	Mtb hypoxia inh	Mtb hypoxia inh growth	BJeLR lethal	RN4220 kill
COc1cccc(CC(=O)OCC(=O)N2CCN(c3ccc(F)cc3)CC2)c1	-3	4582	11	1	-2	-10	2.9
Cc1ccc(C=NNC(=O)c2sccc2OCc2ccc(F)cc2)cc1	.	.	-16	15	14	.	-5.4
O=C(CCCOc1ccccc1)Nc1ncccn1	-42	1950	-4	6	4	-1	2.1
O=C(O)c1cccc([N+](=O)[O-])c1C(=O)Nc1cccc2ccccc12	-13	3832	9	2	4	-5	4.5
Cc1ccc(NC(=O)CCCC2CCCCC2)c(O)c1	-40	5675	2	14	7	-4	5.0
O=C(NCc1ccncc1)C1CCN(S(=O)(=O)c2ccc(Cl)c(C(F)(F)F)c2)CC1	-17	?	9	4	-2	.	5.4
Cc1ccc(CN2CCN(N=Cc3ccc(C(=O)O)cc3)CC2)c(C)c1	.	.	-6	-9	6	.	-3.7
COc1ccc(Br)cc1C(C[N+](=O)[O-])c1c(N)n(C)c(=O)n(C)c1=O (configuration not stated)	-5	4102	-14	.	.	4	21
CN(C)CCCN(C(=O)c1ccc(S(=O)(=O)N(C)C)cc1)c1nc2cc3c(cc2s1)OCO3	-34	2625	9	8	-3	3	0.4
Cc1c(Cl)cccc1NC(=S)N(Cc1cccs1)C1CCCC1	-24	3788	7	-9	1	1	18
Cc1ccc(OCCSc2nc3ccccc3n2CCC(=O)O)cc1	-22	3840	14	-3	-3	-2	-0.6
CCCS(=O)(=O)N1CCCC(C(=O)NCCCN2CCCC2=O)C1 (configuration not stated)	6	2521	4	8	8	-1	2.8
O=C(CCCc1cccs1)N1CCN(S(=O)(=O)c2ccccc2Br)CC1	-6	.	17	13	-1	-1	-4.2
Cc1ccc(NC2=NCC(=O)N2C2CCCC2)cc1	-29	2020	3	0	-12	0	-0.8
Nc1ccc(NC(=O)c2cccs2)c(Cl)c1	-36	6708	7	-2	4	3	5.3
COc1cccc(C2c3[nH]c4ccccc4c3CCN2C(=O)c2ccccc2F)c1OC (configuration not stated)	-24	3937	13	-12	-12	1	-1.6
O=P1(NC2CCCCC2)OCC2(CO1)COP(=O)(NC1CCCCC1)OC2 (configuration not stated)	2	3675	5	6	8	.	1.3
CCN1CCN(CCC(=O)Nc2ccc(F)c(F)c2)CC1	-22	4213	2	16	-4	1	3.1
Cc1c(NC(=O)COC(=O)CCC(=O)c2ccc(Cl)cc2)c(=O)n(-c2ccccc2)n1C	-26	4695	3	2	-5	4	3.0
O=C(Cc1c(F)cccc1Cl)NNC(=O)c1cccs1	-14	5148	8	13	-1	.	8.0
Cc1nc(NCCCn2ccnc2)c2ccccc2n1	-27	13700	3	-1	1	15	5.1
CCOC(=O)c1nc(C)n(-c2cc(Cl)ccc2Cl)n1	-22	19905*	-8	5	16	3	2.0
Cc1c(CCO)c(=O)[nH]n1S(=O)(=O)c1ccc(Cl)cc1Cl	-18	6232	7	4	0	-2	3.5
CCOC(=O)C1CCN(C(=O)Cc2cccs2)CC1	-8	4470	1	3	6	7	2.6
COc1ccc(C(C(=O)NC2CCCCC2)N(C(=O)CCl)c2cccc(Cl)c2)cc1 (configuration not stated)	5	7113	10	18	18	119*	25
O=C(O)Cc1ccc(S(=O)(=O)Nc2ccccc2C(=O)O)cc1	-11	3582	6	-2	3	-1	1.3
Cc1ncoc1C(=O)Nc1ccc2c(c1)OCCO2	-20	18125*	8	6	5	12	0.3
CCCc1ccc(OCc2ccc(C(=O)N/N=C/c3cccc([N+](=O)[O-])c3)o2)c(OC)c1	-32	4230	.	.	.	7	.
O=C(NC(Cc1c[nH]c2ccccc12)C(=O)NN=Cc1ccc(Br)cc1)c1cccs1 (configuration not stated)	.	.	-11	9	1	.	-6.1
COc1cc(C(=O)Nc2ccc(-c3nnc(-c4ccco4)o3)cc2)cc(OC)c1OC	-15	3659	-6	10	11	-7	2.1
COc1ccc(S(=O)(=O)N(CC(=O)N2CCN(C)CC2)c2ccc(C)cc2)cc1OC	-7	6869	1	2	1	-7	-0.1
CC(=O)Cc1c(C(=O)O)c(C)nn1-c1ccccc1	-21	4676	-6	5	15	4	2.1
COc1ccc(OC)c(-c2nc(C(=O)NC3CCN(Cc4ccccc4)CC3)cc3c2[nH]c2ccccc23)c1	10	4265	12	.	.	-2	-4.5
COc1cc(Nc2c3c(nc4ccccc24)CCCC3)cc(OC)c1OC	-7	2378	11	4	2	-6	0.6
COc1ccc(C2CC(c3ccccc3)Nc3nc(N)nn32)cc1 (configuration not stated)	-5	10689	-2	-1	0	-2	1.0
Cc1ccc(-c2csc(N(C)C(=O)c3c(C)nn(-c4ccccc4)c3Cl)n2)cc1	-11	4388	20	2	17	6	-6.4
Cc1cccc(Cn2c(C(C)(C)C)cc3cccnc32)c1	-7	2288	-6	.	.	6	1.6
O=C(Nc1nccs1)c1cc(N2CCOCC2)nc2ccccc12	-7	2998	-2	1	7	-11	5.5
CSc1ccc(S(=O)(=O)Nc2ccc3c(c2)OCCO3)cc1	-2	6006	9	.	.	-3	2.1
Cc1ccc(NC2=CC(=O)CC(C)(C)C2)cc1Cl	-14	4001	-2	13	6	6	1.2
Nc1n[nH]c(N)c1N=Nc1ccc2c(c1)OCO2	-38	4115	3	10	9	-2	5.9
Cc1ccc(OCc2cc(C(=O)N(C)Cc3cnc4ccccn34)no2)cc1C	-12	5398	-4	-1	-11	12	7.2
CCCCN1C(=O)N(c2ccccc2Cl)C(C)(O)CC1(C)C (configuration not stated)	-17	2823	11	20	2	-8	4.6
Cc1ccc(NC(=O)CC2Oc3ccccc3NC2=O)c(C)c1 (configuration not stated)	-4	3904	4	.	.	-2	-2.7
Cc1ccc(NC(=O)N2C3CCCC2CC(NC(=O)C(C)(C)C)C3)cc1 (configuration not stated)	-27	4184	2	7	5	-4	2.7
COc1ccccc1CCC(=O)OCC(=O)NC1CC1	-21	6018	2	7	-11	-3	2.9
O=C(CCn1c(=O)oc2ccccc21)n1c(=O)oc2ccccc21	-7	3383	-2	8	6	6	1.2
COc1ccc(C(N)CCc2ccco2)cc1 (configuration not stated)	-15	6696	-1	.	.	-4	3.9

Record cards, from the list above. Screens in order: PrP UTR inh	Autofluor counter	Sa ugtP lethal	Mtb hypoxia inh	Mtb hypoxia inh growth	BJeLR lethal	RN4220 kill
Listed for `O=C(CCn1c(=O)oc2ccccc21)n1c(=O)oc2ccccc21` → -7	3383	-2	8	6	6	1.2
Listed for `Cc1ccc(NC(=O)CC2Oc3ccccc3NC2=O)c(C)c1` (configuration not stated) → -4	3904	4	.	.	-2	-2.7
Listed for `Cc1ccc(NC2=CC(=O)CC(C)(C)C2)cc1Cl` → -14	4001	-2	13	6	6	1.2
Listed for `COc1ccc(C(N)CCc2ccco2)cc1` (configuration not stated) → -15	6696	-1	.	.	-4	3.9
Listed for `Cc1ccc(NC(=O)N2C3CCCC2CC(NC(=O)C(C)(C)C)C3)cc1` (configuration not stated) → -27	4184	2	7	5	-4	2.7

The listing continues.
SMILES	PrP UTR inh	Autofluor counter	Sa ugtP lethal	Mtb hypoxia inh	Mtb hypoxia inh growth	BJeLR lethal	RN4220 kill
COc1nsnc1NS(=O)(=O)c1ccc(NC(=S)NC(=O)c2cccnc2)cc1	-13	5131	17	18	22	-5	7.3
O=C(CN1CCN(c2ccc(F)cc2)CC1)NCC1CCCO1 (configuration not stated)	-14	10136	0	0	11	.	3.8
Cc1c(C(=O)OCC(C)(C)CN(C)C)oc2ccccc12	-10	4400	-2	3	1	-5	2.1
O=C1NC(c2ccccc2)CCO1 (configuration not stated)	-16	3024	7	8	-3	-5	-4.1
CC(=O)O[C@@]12CO[C@@H]1C[C@H](O)[C@@]1(C)C(=O)[C@H](O)C3=C(C)[C@@H](OC(=O)[C@H](O)[C@@H](NC(=O)c4ccccc4)c4ccccc4)C[C@@](O)([C@@H](OC(=O)c4ccccc4)C12)C3(C)C (some centres not stated)	1	4911	0	.	.	29	0.2
COC(=O)c1ccccc1NS(C)(=O)=O	-19	4666	-7	6	6	.	5.1
Cc1nc([N+](=O)[O-])c(Br)n1CC(=O)c1ccc2ccccc2c1	-8	10371	15	15	20	-25	19
CC(=O)NC(Cc1ccccc1)C(=O)N1CCN(C(=S)NCC(C)C)CC1 (configuration not stated)	-47	4651	8	2	6	-7	4.9
CC(=O)Nc1nnc(-c2ccc3c(c2)CCCC3)o1	-35	5723	-15	-7	3	-14	0.8
Fc1ccc(NN=C/C=C/c2ccccc2)c(F)c1	.	.	5	-4	-15	.	0.6
CCN=C1S/C(=C\c2cn(CC(=O)NCc3ccco3)c3ccccc23)C(=O)N1CC	-18	3568	0	6	7	-4	3.9
CCOc1ccc(-n2c(Cc3cc(=O)[nH]c(=O)[nH]3)nnc2SC(C)C(=O)OC)cc1 (configuration not stated)	-13	5444	8	.	.	0	0.5
COCCNC(=O)c1ccc(CS(=O)(=O)c2ccccc2)o1	-5	15503	-2	-5	4	1	0.9
O=C(NCc1cccnc1)Nc1cccc(F)c1	-15	2583	0	3	2	-6	1.4
O=c1c2cnn(-c3ccc(F)cc3)c2ncn1Cc1ccc(F)cc1	-5	2568	-2	16	7	-7	-5.9
COc1ccc(-c2sc3ccc(OC)cc3c2-c2ccc(O)cc2)cc1	0	2861	100*	3	2	.	76
COc1cccc(NC(=O)CN2C(=O)COc3ccc(C)cc32)c1	-16	4014	9	11	2	-9	1.9
O=S(=O)(NCc1cccnc1)c1ccccc1	.	7652	0	-4	3	-3	5.7
Cc1csc(NC(=O)CSc2ccc([N+](=O)[O-])cn2)n1	-16	4945	-1	14	16	-14	14
Cc1cc(C)n(CC(O)Cn2ccc3ccccc32)n1 (configuration not stated)	.	9751	-1	-1	-6	3	1.8
S=C(NCc1cccnc1)Nc1cccc2ccccc12	-5	2538	0	-1	-2	0	1.6
CCOc1ccc(Nc2nc(NCC(=O)O)nc(N)c2[N+](=O)[O-])cc1	-3	3814	5	4	-1	3	6.2
CCOc1ccccc1NC(=O)COC(=O)C1CC(=O)N(c2c(C)cccc2C)C1 (configuration not stated)	-3	3781	1	1	3	9	-0.4
OCC1(Cc2ccccc2)CCCN(Cc2ccc3c(c2)OCCO3)C1 (configuration not stated)	-15	6301	2	-7	-2	0	8.8
CCCCOn1c(C)c(C(C)=O)c2c3no[n+]([O-])c3ccc21	-2	2463	-14	-14	-5	4	3.4
COc1ccc(Cl)cc1NC(=O)CN(C)C(=O)c1cc2ccccc2cc1OC	-25	.	-4	-10	-12	11	-4.8
CCOc1cc(C(=O)Nc2cc3c(cc2N2CCOCC2)n(C)c(=O)n3C)cc(OCC)c1OCC	-16	5300	-2	10	4	-8	3.3
Cc1ccc(S(=O)(=O)C2(C(=O)NC3CCCC3)CC2)cc1	-19	11797	2	4	6	-18	5.7
Oc1ccc(Br)cc1Cn1nnc2ccccc21	-15	3573	5	3	11	1	3.9
O=[N+]([O-])c1nn(-c2ccc(Cl)cc2)n(O)c1=NCc1cccnc1	-27	2547	29	.	.	-13	20
O=C(c1ccc2c(c1)OCO2)N1CCN(c2ccc(F)cc2)CC1	-9	?	8	7	0	-4	1.3
Cc1cccc(NC(=O)Nc2cc(C)on2)c1	-47	2736	7	.	.	-1	-1.8
COc1ccc(-n2nnnc2CNC(=O)c2ccc3c(c2)OCO3)cc1	-19	5759	7	7	7	-5	4.8
O=C1CC(/C=C/c2ccc(Cl)cc2)=Nc2ccccc2N1	-51	4910	5	-5	13	5	7.5
CSCCC(NS(=O)(=O)c1ccccc1F)C(=O)NCc1ccncc1 (configuration not stated)	-21	5045	5	-4	4	-7	-0.9
CC(=O)N1c2ccc(S(=O)(=O)NCCC(=O)Nc3ccc(C)c(Cl)c3)cc2CC1C (configuration not stated)	-20	5894	3	-7	2	-5	2.1
Cc1ccc(OCCN2CCN(C(=O)CCC(=O)Nc3nnc(C)s3)CC2)cc1	-11	4656	5	.	.	.	-0.1
COc1ccc(NS(=O)(=O)c2cccc(C(=O)N3CCN(S(=O)(=O)c4ccccc4)CC3)c2)cc1	-23	3480	5	6	7	.	1.3
CCS(=O)(=O)Nc1ccc(C(=O)NCCSc2ccccc2)cc1	-27	3902	-2	-2	-7	-1	-8.1
COc1ccc2nc(C)cc(Nc3ccc(N4CCOCC4)cc3)c2c1	-31	6479	9	.	.	1	1.1

Compound activity from PubChem BioAssay.
